# HIV Env fusion: HIV envelope-mediated fusion inhibition; HeLa-JRFL Env/CEM21 cell fusion, luciferase; inhibition, % at 12.3 µM; 360,000 compounds, 1.1% hits;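 active means mean replicate inhibition score of at least 50 and every replicate individually at or above 50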;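 further: 0% = plate neutral controls and 100% = maraviroc near 300 nM; one replicate is shown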
# UUG fidelity: yeast start codon fidelity modulation | S. cerevisiae UUG-firefly luciferase reporter, luminescence/redox ratio | activity score, % at 18.7 µM | 350,000 compounds, 0.13% hits | AID 602363;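 active means replicate mean at a twofold rise or more, about +100% in these data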;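 further: firefly luciferase made from a UUG start codon reports start codon fidelity; reporter light over untreated wells divided by growth signal over untreated wells; some hits fall short of that in this replicate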
# * marks the source's active call; other numbers are inactive results; [ ] = another dose, or the depositor's remark. Some of the compounds tested (hit frequency here may not be typical).
SMILES,HIV Env fusion,UUG fidelity
COc1ccc(NC(=O)Nc2ccc3c(c2)CC(=O)N([C@H](C)CO)C[C@H](C)[C@@H](CN(C)C(=O)Nc2ccc(OC)cc2)O3)cc1,-2[16.7 µM],26
O=C(C[C@@H]1C=C[C@@H](NC(=O)C2CCOCC2)[C@@H](CO)O1)NCC1CCCCC1,14[16.7 µM],-17
C[C@@H]1CN([C@H](C)CO)C(=O)c2cc(NC(=O)Nc3ccc(F)cc3)ccc2O[C@@H](C)CCCCO[C@@H]1CN(C)Cc1ccc(Cl)c(Cl)c1,8[16.7 µM],-10
O=C(N[C@H]1CC[C@@H](CCNS(=O)(=O)c2ccc(F)cc2)O[C@@H]1CO)c1cccnc1,6[16.7 µM],-7
C[C@@H]1CN([C@H](C)CO)S(=O)(=O)c2ccc(-c3ccc(F)cc3)cc2O[C@@H]1CN(C)C,3[16.7 µM],-15
C[C@H]1CN([C@@H](C)CO)S(=O)(=O)c2ccc(Br)cc2O[C@@H]1CN(C)C(=O)CN(C)C,-26[16.7 µM],5
COc1ccc(-c2cnc3c(c2)C(=O)N([C@H](C)CO)C[C@H](C)[C@H](CN(C)Cc2ccccn2)O3)cc1,-18[16.7 µM],-20
C[C@H](CO)N1C[C@H](C)[C@@H](CN(C)S(=O)(=O)c2cn(C)cn2)OCCCC[C@H](C)Oc2ccc(NC(=O)NC3CCCCC3)cc2C1=O,-4[16.7 µM],-1
Cc1noc(C)c1NC(=O)Nc1ccc2c(c1)C(=O)N([C@H](C)CO)C[C@H](C)[C@@H](CN(C)Cc1ccc(C(=O)O)cc1)OCCCC[C@H](C)O2,-7[16.7 µM],-13
CC(C)NC(=O)Nc1ccc2c(c1)C(=O)N([C@@H](C)CO)C[C@H](C)[C@H](CN(C)Cc1ccc3c(c1)OCO3)OCCCC[C@@H](C)O2,-3[16.7 µM],17
C[C@@H]1CN([C@@H](C)CO)S(=O)(=O)c2ccc(C#CCN(C)C)cc2O[C@H]1CN(C)C,6[16.7 µM],5
C[C@@H]1CN([C@@H](C)CO)S(=O)(=O)c2ccc(C3=CCCCC3)cc2O[C@H]1CN(C)Cc1ccccc1F,23[16.7 µM],3
Cc1noc(C)c1NC(=O)Nc1ccc2c(c1)C(=O)N([C@@H](C)CO)C[C@@H](C)[C@H](CN(C)S(=O)(=O)c1ccc(F)cc1)OCCCC[C@@H](C)O2,-33[16.7 µM],29
C[C@@H]1CN([C@@H](C)CO)C(=O)c2cc(C#Cc3ccccc3F)cnc2O[C@@H]1CN(C)C(=O)c1ccc2c(c1)OCO2,25[16.7 µM],24
Cc1noc(C)c1NC(=O)N(C)C[C@@H]1OCCCC[C@H](C)Oc2ccc(NC(=O)Nc3ccc(C(F)(F)F)cc3)cc2C(=O)N([C@@H](C)CO)C[C@H]1C,9[16.7 µM],-11
CCCNC(=O)N(C)C[C@@H]1Oc2ncc(C#CC3(O)CCCC3)cc2C(=O)N([C@@H](C)CO)C[C@@H]1C,-11[16.7 µM],16
C[C@@H]1CN([C@@H](C)CO)C(=O)c2cc(NS(=O)(=O)c3ccccc3)ccc2O[C@@H](C)CCCCO[C@@H]1CN(C)Cc1ccc(C(=O)O)cc1,0[16.7 µM],6
COc1ccccc1NC(=O)N[C@H]1CC[C@@H](CCNS(=O)(=O)c2ccc(Cl)cc2)O[C@H]1CO,12[16.7 µM],16
COc1ccc([Si](C)(C)[C@H]2[C@H](CCO)O[C@@]3(C(=O)N(Cc4ccccc4)c4ccc(N5CCOC5=O)cc43)[C@@H]2C)cc1,19[16.7 µM],-9
C[C@H]1CN([C@@H](C)CO)C(=O)c2cc(-c3cccc(C#N)c3)cnc2O[C@@H]1CN(C)C(=O)c1ccccn1,5[16.7 µM],-13
C[C@@H]1CCCCO[C@H](CN(C)C(=O)c2ccncc2)[C@@H](C)CN([C@H](C)CO)C(=O)c2cc(NC(=O)CCCCCC(=O)Nc3ccccc3N)ccc2O1,-10[16.7 µM],-11
Cc1noc(C)c1S(=O)(=O)Nc1ccc2c(c1)C(=O)N([C@H](C)CO)C[C@H](C)[C@H](CN(C)C)OCCCC[C@H](C)O2,4[16.7 µM],5
C[C@@H]1CN([C@H](C)CO)C(=O)Cc2cc(NC(=O)Cn3cnnn3)ccc2O[C@H]1CN(C)C(=O)Nc1ccc(C(F)(F)F)cc1,4[16.7 µM],9
O=C(N[C@H]1CC[C@H](CCNS(=O)(=O)c2ccccc2)O[C@H]1CO)c1cccc(F)c1,6[16.7 µM],74
C[C@H]1CCCCO[C@@H](CN(C)C(=O)CCC(F)(F)F)[C@@H](C)CN([C@@H](C)CO)C(=O)c2cc(NS(C)(=O)=O)ccc2O1,18[16.7 µM],35

# Additional entries
SMILES,HIV Env fusion,UUG fidelity
C[C@H]1CN([C@@H](C)CO)S(=O)(=O)c2ccc(C#Cc3ccccc3F)cc2O[C@H]1CN(C)CC1CC1,7[16.7 µM],1
CC(=O)Nc1ccc2c(c1)C(=O)N(C)[C@H]1CC[C@H](CC(=O)NCC3CCCCC3)O[C@@H]1CO2,11[16.7 µM],-10
CNC(=O)C[C@H]1CC[C@H]2[C@@H](COc3ccc(NC(=O)c4ccno4)cc3C(=O)N2C)O1,-15[16.7 µM],-10
COc1ccc(NC(=O)Nc2ccc3c(c2)CC(=O)N([C@@H](C)CO)C[C@@H](C)[C@H](CN(C)C(=O)NC(C)C)O3)cc1,-19[16.7 µM],39
C[C@H](CO)N1C[C@H](C)[C@@H](CN(C)C(=O)Nc2cccc3ccccc23)OCCCC[C@H](C)Oc2ccc(NC(=O)Nc3ccc4c(c3)OCO4)cc2C1=O,-23[16.7 µM],-17
COc1ccc(S(=O)(=O)Nc2cccc3c2O[C@@H](CN(C)C(=O)Nc2ccccc2)[C@@H](C)CN([C@@H](C)CO)C3=O)cc1,-15[16.7 µM],-9
COc1ccc(NC(=O)N(C)C[C@H]2Oc3ccc(NC(=O)NC(C)C)cc3CC(=O)N([C@@H](C)CO)C[C@@H]2C)cc1,-10[16.7 µM],-6
COCC(=O)Nc1ccc2c(c1)C(=O)N(C)C[C@@H](OC)[C@H](C)CN(Cc1ccncc1)[C@H](C)CO2,-10[16.7 µM],2
CC(=O)N(C)C[C@H]1Oc2cc(C#CC3CCCC3)ccc2S(=O)(=O)N([C@H](C)CO)C[C@@H]1C,19[16.7 µM],2
CCCNC(=O)C[C@@H]1CC[C@H]2[C@H](COc3ccc(NC(=O)Nc4ccccc4F)cc3C(=O)N2C)O1,18[16.7 µM],13
C[C@@H]1CCCCO[C@@H](CN(C)S(=O)(=O)c2cn(C)cn2)[C@H](C)CN([C@@H](C)CO)C(=O)c2cc(NC(=O)Nc3ccc(F)cc3)ccc2O1,37[16.7 µM],8
O=C(Nc1ccc2c(c1)[C@@H]1C[C@@H](CC(=O)N3CCOCC3)O[C@H](CO)[C@@H]1O2)c1cccnc1,1[16.7 µM],-21
O=C(C[C@@H]1C[C@H]2c3cc(NC(=O)CC4CC4)ccc3O[C@H]2[C@@H](CO)O1)NCC(F)(F)F,8[16.7 µM],-14
CCC(=O)N(C)C[C@@H]1Oc2cc(-c3cccc(C#N)c3)ccc2S(=O)(=O)N([C@H](C)CO)C[C@@H]1C,-3[16.7 µM],-8
CCCNC(=O)N(C)C[C@H]1Oc2cc(C#CCC(C)C)ccc2S(=O)(=O)N([C@H](C)CO)C[C@H]1C,-4[16.7 µM],25
CC(=O)Nc1ccc2c(c1)C(=O)N(C)[C@@H]1CC[C@H](CC(=O)NCC3CCCCC3)O[C@H]1CO2,4[16.7 µM],-7
O=C(CCN1CCCCC1)NCC[C@H]1CC[C@H](NC(=O)Nc2ccc(Cl)cc2)[C@@H](CO)O1,-4[16.7 µM],-11
C[C@@H]1CN([C@H](C)CO)C(=O)c2cc(NC(=O)C3CCCCC3)ccc2O[C@@H]1CN(C)C(=O)Nc1ccc2c(c1)OCO2,-10[16.7 µM],2
C[C@H](CO)N1C[C@H](C)[C@@H](CN(C)C(=O)Nc2cccc(F)c2)Oc2cc(/C=C/c3ccccc3)ccc2S1(=O)=O,-7[16.7 µM],-14
C[C@H](CO)N1C[C@H](C)[C@H](CN(C)Cc2ccc3c(c2)OCO3)OCCCC[C@H](C)Oc2ccc(NS(C)(=O)=O)cc2C1=O,-19[16.7 µM],30
C[C@H](CO)N1C[C@H](C)[C@@H](CN(C)Cc2cccc(F)c2)Oc2ncc(-c3ccccc3F)cc2C1=O,11[16.7 µM],-14
COc1cccc(CNC(=O)C[C@@H]2CC[C@H](NC(=O)C3CCC3)[C@@H](CO)O2)c1,-2[16.7 µM],4
C[C@@H]1CCCCO[C@@H](CN(C)C(=O)Nc2ccc(C(F)(F)F)cc2)[C@H](C)CN([C@@H](C)CO)C(=O)c2cc(NS(=O)(=O)c3cn(C)cn3)ccc2O1,-1[16.7 µM],-6
C[C@H](CO)N1C[C@H](C)[C@H](CN(C)C(=O)Nc2cccc3ccccc23)Oc2c(NC(=O)Nc3ccc(C(F)(F)F)cc3)cccc2C1=O,-7[16.7 µM],0
COC(=O)C[C@H]1CC[C@@H]2[C@H](COc3ccc(NC(=O)c4ccccc4)cc3C(=O)N2C)O1,-15[16.7 µM],9

# Single records, from the list above:
# COC(=O)C[C@H]1CC[C@@H]2[C@H](COc3ccc(NC(=O)c4ccccc4)cc3C(=O)N2C)O1 is listed with HIV Env fusion: -15[16.7 µM]; UUG fidelity: 9
# COc1ccc(NC(=O)Nc2ccc3c(c2)CC(=O)N([C@@H](C)CO)C[C@@H](C)[C@H](CN(C)C(=O)NC(C)C)O3)cc1 is listed with HIV Env fusion: -19[16.7 µM]; UUG fidelity: 39
# CC(=O)Nc1ccc2c(c1)C(=O)N(C)[C@@H]1CC[C@H](CC(=O)NCC3CCCCC3)O[C@H]1CO2 is listed with HIV Env fusion: 4[16.7 µM]; UUG fidelity: -7

# Back to the main list with the 2 entries that preceded the break.
SMILES,HIV Env fusion,UUG fidelity
C[C@H](CO)N1C[C@H](C)[C@H](CN(C)C(=O)Nc2cccc3ccccc23)Oc2c(NC(=O)Nc3ccc(C(F)(F)F)cc3)cccc2C1=O,-7[16.7 µM],0
COC(=O)C[C@H]1CC[C@@H]2[C@H](COc3ccc(NC(=O)c4ccccc4)cc3C(=O)N2C)O1,-15[16.7 µM],9
Cc1noc(C)c1NC(=O)N[C@@H]1C=C[C@@H](CC(=O)Nc2ccc(-c3ccccc3)cc2)O[C@H]1CO,17[16.7 µM],4
COc1ccc(NC(=O)N(C)C[C@@H]2OCCCC[C@@H](C)Oc3ccc(NS(=O)(=O)c4ccc(C)cc4)cc3C(=O)N([C@H](C)CO)C[C@@H]2C)cc1,11[16.7 µM],-9
C[C@@H]1CCCCO[C@H](CN(C)S(C)(=O)=O)[C@@H](C)CN([C@@H](C)CO)C(=O)c2cc(NS(=O)(=O)c3ccc(F)cc3)ccc2O1,-6[16.7 µM],17
C[C@@H]1CCCCO[C@H](CN(C)C(=O)NC2CCCCC2)[C@@H](C)CN([C@@H](C)CO)C(=O)c2cc(NC(=O)Nc3ccc(C(F)(F)F)cc3)ccc2O1,39[16.7 µM],7
Cc1ccccc1S(=O)(=O)N[C@H]1CC[C@@H](CCNS(=O)(=O)c2cccc(F)c2)O[C@H]1CO,10[16.7 µM],21
C[C@@H]1CN([C@H](C)CO)C(=O)c2cc(NC(=O)Cn3cnnn3)ccc2O[C@@H]1CN(C)Cc1ccc(Cl)c(Cl)c1,-17[16.7 µM],0
C[C@@H]1CN([C@@H](C)CO)C(=O)c2cc(NC(=O)C3CCCCC3)ccc2O[C@H]1CN(C)C(=O)Nc1ccc2c(c1)OCO2,32[16.7 µM],-4
C[C@H](CO)N1C[C@H](C)[C@H](CN(C)Cc2ccncc2)Oc2ncc(C#Cc3cccc(F)c3)cc2C1=O,7[16.7 µM],0
CCC(=O)N(C)C[C@@H]1Oc2ncc(C#Cc3cccnc3)cc2C(=O)N([C@@H](C)CO)C[C@@H]1C,-18[16.7 µM],-5
CCCNC(=O)N(C)C[C@H]1Oc2ncc(-c3cccc(C#N)c3)cc2C(=O)N([C@H](C)CO)C[C@@H]1C,-9[16.7 µM],12
O=C(NC1CCCCC1)N[C@H]1CC[C@H](CCNS(=O)(=O)c2ccccc2)O[C@H]1CO,-4[16.7 µM],53
Cc1noc(C)c1NC(=O)Nc1ccc2c(c1)C(=O)N([C@H](C)CO)C[C@@H](C)[C@@H](CN(C)C(=O)Nc1ccc(F)cc1)O2,-48[16.7 µM],0
C[C@@H]1CN([C@H](C)CO)C(=O)c2cccc(NC(=O)Nc3ccc(F)cc3)c2O[C@H]1CN(C)C(=O)Nc1ccccc1,-11[16.7 µM],16
C[C@@H]1CCCCO[C@H](CN(C)Cc2ccc(C(=O)O)cc2)[C@@H](C)CN([C@H](C)CO)C(=O)c2cc(NS(=O)(=O)c3ccc(F)cc3)ccc2O1,-2[16.7 µM],-8
C[C@@H]1CN([C@H](C)CO)C(=O)Cc2cc(NC(=O)Nc3ccc4c(c3)OCO4)ccc2O[C@@H]1CN(C)Cc1ccccc1,-34[16.7 µM],2
C/C=C/c1cnc2c(c1)C(=O)N([C@H](C)CO)C[C@@H](C)[C@H](CN(C)C(=O)Cc1ccccn1)O2,10[16.7 µM],5
C/C=C/c1ccc2c(c1)O[C@@H](CN(C)C(=O)CC1CC1)[C@H](C)CN([C@@H](C)CO)S2(=O)=O,-14[16.7 µM],15
Cc1noc(C)c1S(=O)(=O)Nc1ccc2c(c1)C(=O)N([C@H](C)CO)C[C@@H](C)[C@@H](CN(C)Cc1ccccc1)O2,-17[16.7 µM],8
